NPYLR7 ag = mosquito NPYLR7 agonism; HEK293T NPYLR7/Galpha15, GCaMP6s calcium fluorescence; activation, % at 10 µM; actives 0.15% (n = 270,000); in the data active = activation above about 40%;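 also: 0% = vehicle and 100% = reference agonist at the receptor; some compounds past the cut are filed as inactive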
NPYLR7 ag max-min = also measured in NPYLR7 ag; calls as there; activation, %; measured here: Max-Min RFU normalised activation; some inactives read as strong as hits;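 span of the calcium signal over five minutes; 0% = vehicle and 100% = native peptide agonist; compound fluorescence can raise it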
Starred values were filed as active, the others as inactive; & = joins results of further samples.

SMILES	NPYLR7 ag	NPYLR7 ag max-min
CCCCCCCC(=O)NCc1cccc(-c2ncc(-c3ccccc3)[nH]2)c1	-5.6	-9.2
CCCCCC(O)C1C(=O)OC(C)C(O)/C=C/C=C/C=C/C=C/C=C(\C)C(O)CC(O)CC(O)CC(O)CC(O)CC(O)CC1O (stereo not drawn)	-7.9	3.6
CCOC(=O)CC1=NN(c2ccccc2)C(=O)/C1=C\c1cccc(OC)c1OC	10.7	9.9
CN1CCN(Cn2c(O)c(N=NC(=O)c3ccncc3)c3ccccc32)CC1	5.5	5.2
CC(=O)N1CCCN(C(=O)NCC(C)c2ccc(F)cc2F)CC1 (stereo not drawn)	9.6	4.3
COC(=O)c1ccnc(C2CCCCC2=O)c1 (stereo not drawn)	-7.2	-10.2
Cc1ccc2[nH]c(CN3CCOC(C(F)(F)F)C3)nc2c1C (stereo not drawn)	4.0	1.0
COCCN(CC(=O)N1CC(=O)N(c2cccc(Cl)c2)C1)C(=O)c1ccccc1	-4.9	4.2
O=C(CCNc1nc(-c2ccccc2Cl)nc2ccccc12)Nc1ccccc1	5.8	13.5
CN1C(=O)CC(N(C)CCOc2ccccc2)C1=O (stereo not drawn)	8.9	4.2
CCOC(=O)c1ccc(-c2ccc(C=C(C#N)C(=O)Nc3sc(C)c(C)c3C(=O)OCC)o2)cc1	4.9	2.5
Cc1ccc(C)c(NC(=O)CSc2nc(N)c(NC(=O)c3ccc(Br)o3)c(=O)[nH]2)c1	2.1	1.3
Cc1cc(CS(=O)(=O)N2CCOC3CCCCC32)on1 (stereo not drawn)	39.4	35.5
COc1cc2c(cc1OC)CN(C(=O)c1ccc(-c3n[nH]c4c3CCCc3ccccc3-4)cc1)CC2	29.4	16.6
COCC(C)n1c(C)cc(C(=O)CSc2nc(C)nc3sc(C)c(C)c23)c1C (stereo not drawn)	8.6	5.8
O=S(=O)(c1cccc(Oc2ccccc2)c1)N1CCn2cncc2C1	1.4	4.1
COCCNc1nc(NCc2ccccc2)c2cnn(-c3ccccc3)c2n1	-0.8	-3.3
Cc1c(C(=O)O)sc2ncn(C)c(=O)c12	0.4	-0.7
Cc1nc2c(C(=O)Nc3ccc(Cl)cc3)c[nH]n2c(=O)c1C	-10.2	-10.4
CNC(=O)[C@@H]1[C@@H](OC)C(=O)N(C)C12CCN(C(=O)c1cccs1)CC2	23.9	20.3
CCc1cn[nH]c1C1CCCN(C(=O)c2nn3cc(C)cnc3c2Cl)C1 (stereo not drawn)	0.4	-1.1
CCn1c(C2CCCN(C(=O)c3c(C)nc4sccn34)C2)nn(C)c1=O (stereo not drawn)	18.1	9.3
COc1ccc(NC(=O)N(C)Cc2ccc(Cl)s2)cn1	8.3	5.6
CCc1cccc(N2C(=O)CSC2c2ccc(NC(=O)COc3ccccc3)cc2)c1 (stereo not drawn)	6.6	14.0
CCCOc1ccc(OCC(=O)NCC2CC2)cc1	6.2	3.0
COC(=O)c1ccc(CSc2ccc3nnc(-c4ccc(C)cc4)n3n2)o1	15.9	17.5
COC(=O)c1cn([C@H]2C[C@@H](C(=O)NCc3ccc(OC)cc3)N(C3CCCC3)C2)nn1	-1.8	-7.7
CN(CC(=O)N1CCN(c2ncccn2)CC1)S(=O)(=O)c1cccs1	-0.4	-1.3
Cc1onc(-c2ccccc2Cl)c1C(=O)Nc1ccc(N=Nc2ccccc2)c2ccccc12	-19.5	-23.2
CCOC(=O)C1CCN(S(=O)(=O)Cc2cc(C)on2)CC1	-5.9	-6.4
N=C(N)Sc1cn(CCNC(=O)c2ccc(F)cc2)c2ccccc12	-7.9	-15.5
CC(C)N1CCCC(N2CCCN(CC(=O)N(C)C)CC2)C1=O (stereo not drawn)	0.5	6.3
COCCS(=O)(=O)NC1CN(C)CC1C (stereo not drawn)	15.3	14.0
Cc1ccc(NC(=O)c2cc(-c3ccccc3F)nn2-c2cccc([N+](=O)[O-])c2)cc1	8.0	10.3
O=C(CCl)Nc1ccc(Cl)cc1F	2.7	0.9
Cc1ccc(-n2ccnc(SCC(=O)NCCC(C)C)c2=O)cc1F	-0.7	6.0
CCOC(=O)CCC(=O)Nn1cnc2c(cnn2-c2ccccc2)c1=O	-0.2	-0.8
C#CC(O)(c1ccc(OC)cc1)c1ccc(OC)c2ccccc12 (stereo not drawn)	-1.1	-0.7
O=C(CSc1nc(=O)n(CCCO)c2c1CCC2)Nc1ccc(F)cc1F	-8.1	-15.2
CC1CCCN(S(=O)(=O)c2ccc3c(c2)nc(SCC(=O)c2ccccc2)n3C2CCCC2)C1 (stereo not drawn)	13.1	2.9
Cc1nc(N2CCN(C(=O)c3ccccc3C(F)(F)F)CC2)cc(-n2cccn2)n1	-12.5	-16.4
Cc1ccc2nc(COc3cccc(C(=O)N4CCNC(=O)C4C(C)C)c3)cn2c1 (stereo not drawn)	-0.6	1.1
Cc1ccc(Cc2nsc(N3CCCC3C(=O)N3CCN(C(c4ccccc4)c4ccccc4)CC3)n2)cc1 (stereo not drawn)	-5.1	-5.5
CN(CC1CCCN1C(=O)c1ccc(CN2CCCC2=O)cc1)c1ccccc1 (stereo not drawn)	-0.5	-0.9
COc1cc(CCC(=O)N2CCN3C(=O)CN(C)C(=O)C3C2)ccc1C (stereo not drawn)	4.9	3.1
COc1cc(=O)n(-c2ccccc2C)nc1C(=O)NCc1ccc2c(c1)OCO2	4.9	5.5
CCCOC(=O)CCNS(=O)(=O)c1ccc(OC)c(C)c1C	8.6	4.2
O=C(O)c1cc(S(=O)(=O)N2CCCC2)cs1	-0.7	-2.7
CCOC(=O)c1cccnc1-c1cc(OC)ccc1F	5.0	3.5
COCCOc1nc(-c2cccc(C(F)(F)F)c2)n(-c2cccc(NC(=O)c3cccc([N+](=O)[O-])c3)c2)n1	32.5	17.0
CCOC1CCCN(C(=O)Nc2ccc3c(ccn3CCOC)c2)C1 (stereo not drawn)	-0.5	-6.8
CC=CC=CC(=O)OCC(=O)N1CCN(C(=O)COC(=O)C=CC=CC)CC1	0.8	6.1
C=CCOC1C[C@](OCc2ccccc2C)(C(=O)NCC(C)C)C[C@@H](O)[C@H]1O (stereo partly drawn)	2.1	13.0
CN1CCc2c(sc(NC(=O)c3ccc(C#N)cc3)c2-c2nc3ccccc3s2)C1	-3.1	-5.9
CCOc1ncccc1C(=O)N1CCN(c2ccc([N+](=O)[O-])cc2)CC1	-2.4	-8.4
Cc1ccc(-c2nnc(Nc3ccc(CC(N)=O)cc3)c3ccccc23)cc1S(=O)(=O)NCCO	-16.7	-19.8
CCC1CCCCN1C(=O)c1coc(CN2CCN(c3ncccn3)CC2)n1 (stereo not drawn)	6.1	3.5
Cc1ccccc1NC(=O)c1ccc(C)c(S(=O)(=O)N(CCO)CCO)c1	1.7	-3.5
CCC(c1nc2ccccc2c(=O)n1-c1ccc(Br)cc1)N(CCC(C)C)C(=O)Nc1cccc(C)c1 (stereo not drawn)	-2.1	-10.5
O=C(Nc1ccc(Oc2ccc(Cl)cc2)cc1)c1cc2ccc(O)cc2oc1=O	-11.2	-17.7

Compound profiles, as listed above. Order of values: NPYLR7 ag	NPYLR7 ag max-min
Listed for CCOC1CCCN(C(=O)Nc2ccc3c(ccn3CCOC)c2)C1 (stereo not drawn) : -0.5	-6.8
Listed for Cc1ccc(-c2nnc(Nc3ccc(CC(N)=O)cc3)c3ccccc23)cc1S(=O)(=O)NCCO : -16.7	-19.8

New compounds follow
SMILES	NPYLR7 ag	NPYLR7 ag max-min
C=CCN(CC(=O)N1CCc2sccc2C1COc1ccccc1OC)C(=O)NC(C)C (stereo not drawn)	-3.5	-2.4
O=S(=O)(Cc1cccc2cccnc12)c1ccccc1	10.1	7.8
O=C1c2ccccc2-c2ccccc21	9.2	7.3
O=C(c1cn(CCN2CCOCC2)nn1)N1CCCC(c2ccccc2)CC1 (stereo not drawn)	4.3	5.3
CC(=O)c1ccc(N2CCN(C(=O)C3CC=CCC3C(=O)N3CCc4ccccc4C3)CC2)cc1 (stereo not drawn)	-6.6	-12.8
C=CCNCCOc1cc(Cl)ccc1Cl	8.2	17.0
O=C(c1cc(F)cc(F)c1)N1CCN(c2nccc(-c3cccc(C(F)(F)F)c3)n2)CC1	3.9	-0.6
Cc1cccc(C2=N/C(=C\c3c(C(F)(F)F)nn(C)c3Cl)C(=O)O2)c1	-3.7	-5.0
COc1ccc(F)cc1C(=O)C1CCCN(Cc2cccc3nonc23)C1 (stereo not drawn)	4.0	0.9
Cc1ncc(CO)c(CN2CC[C@@H](c3ccc4ccccc4c3)[C@H](O)C2)c1O	1.8	1.3
COCCN(Cc1ccsc1)C(=O)C1CC(=O)N(c2ccc(C)c(C)c2)C1 (stereo not drawn)	32.4	28.8
N#CC(C#N)C(=N)C(C#N)CC(=O)N1CCCCCC1 (stereo not drawn)	2.4	-0.9
c1cc2c(cc1OCc1nn[nH]n1)OCO2	19.7	10.7
COCc1ccc(C(=O)Nc2cc3c(cc2Cl)OCO3)o1	-9.6	-15.0
Cc1c(CN(C)Cc2cccc3ncccc23)c(=O)n(-c2ccccc2)n1C	12.2	9.6
O=C(c1ccc(Oc2ccccc2)o1)N1CCCC(Nc2ccc3c(c2)OCO3)C1 (stereo not drawn)	6.4&0.6	1.2&0.3
COCCN=Cc1cc(I)cc(I)c1O	50.9*	51.2*
S=c1[nH]c(-c2ccccc2)cn1N=Cc1ccc2c(c1)OCCO2	2.4	-0.5
CNC(=O)C1CCN(C(=O)c2cc3sc(N(C)C)nc3s2)CC1	4.5	3.0
CSc1ncc(-c2nnnn2-c2ccccc2)c(-c2ccc(F)cc2F)n1	0.8	4.1
O=C(NCCC(=O)N1CCOC(Cc2ccccc2)C1)OCc1ccccc1 (stereo not drawn)	-5.6	-10.0
CC(=O)NC(CC(=O)N(C)C1CCCCC1)c1cccs1 (stereo not drawn)	-2.0	-3.2
CCN1C(=O)N(CCCc2cccnc2)C(=O)C12CCN(C/C=C/c1ccccc1)CC2	15.4	1.2
Cc1nn(C2CCS(=O)(=O)C2)c2nc(-c3ccco3)cc(C(=O)O)c12 (stereo not drawn)	-1.3	-4.4
CN(Cc1ccc(C(=O)Nc2ccc(F)cc2F)cc1)Cc1cnccn1	-2.2	-2.8
COCc1nn2c(nnc3c(=O)n(CCc4cnc[nH]4)ccc32)c1-c1ccccc1	9.4	7.7
Cc1nc(SC2CCOC2=O)c(C#N)c(C)c1C (stereo not drawn)	5.7	5.4
COCCOc1nc(-c2ccc(OC)cc2)n(-c2ccc(NS(=O)(=O)c3ccc(Cl)cc3)cc2)n1	21.8	24.2
O=S(=O)(c1ccc(-n2cccn2)c(F)c1)N1CCSCC1	5.0	-6.9
COc1cc(C=Cc2ccc3ccccc3n2)cc(Br)c1O	24.1	13.7
Cn1c(=O)c([N+](=O)[O-])c(N2CCN(Cc3ccc(Cl)cc3Cl)CC2)c2ccccc21	11.4	4.0
COc1ccc(-c2n[nH]c(=S)n2-c2ccc(C)cc2)cc1	5.5	18.6
O=S(=O)(c1ccc(Cl)c(C(F)(F)F)c1)N1CCNCC1	10.0	8.9
Cc1noc(/C=C/N(C)C)c1S(=O)(=O)NC1CCCCC1	4.9	3.4
Cc1cnccc1CN(C)C(=O)c1ccc2cccnc2n1	1.2	-2.5
CC(OC(=O)C12CC3CC(C1)CC(c1ccccc1)(C3)C2)C(=O)N1CCCC1 (stereo not drawn)	-0.7	-0.4
Cc1cccc(-c2nc3ccc(C)cn3c2NC2CCCCC2)c1	-4.5	0.2
COc1ccccc1N=C1SC(C(=O)NCCc2ccccc2)CC(=O)N1C (stereo not drawn)	6.3	7.2
COCCNC(=O)C1(C)CCCN(CCc2cccc(F)c2)C1 (stereo not drawn)	-7.8	-5.7
CC(C)Nc1ncccc1C(=O)N1CCC(NC(=O)OC(C)(C)C)C1 (stereo not drawn)	0.2	0.4
Cc1cc2c(c(-c3ccc(Cl)cc3)c1)OC(CNC(=O)c1cc[n+]([O-])cc1)C2 (stereo not drawn)	7.5	6.2
O=C(Cc1cccs1)N1CCN(c2nc(Cc3ccccc3)nc3c2cnn3-c2ccccc2)CC1	3.8	3.4
O=C(c1cnn2c(C(F)(F)F)cc(-c3ccc4c(c3)OCO4)nc12)N1CCCC1	-2.9	-1.8
Cc1nc(C)n(CC(=O)N2CCc3c([nH]c4ccccc34)C2c2ccccc2F)n1 (stereo not drawn)	-7.0	-13.5
O=C(Nc1cnn(-c2ccc(C(=O)N3CCOc4ccccc4C3)cc2)c1)c1cccnc1	10.4	3.6
Nc1nnc(SCC(=O)N2N=C3C(=Cc4ccco4)CCCC3C2c2ccco2)s1 (stereo not drawn)	1.0	11.6
O=S(=O)(c1ccccc1)N1C[C@H](Oc2ccccn2)[C@H]2C[C@@H]1Cc1c2[nH]c2ccccc12	27.4	24.2

Among those listed so far, these have a thiophene ring, fused or not.
SMILES	NPYLR7 ag	NPYLR7 ag max-min
CCOC(=O)c1ccc(-c2ccc(C=C(C#N)C(=O)Nc3sc(C)c(C)c3C(=O)OCC)o2)cc1	4.9	2.5
COCC(C)n1c(C)cc(C(=O)CSc2nc(C)nc3sc(C)c(C)c23)c1C (stereo not drawn)	8.6	5.8
Cc1c(C(=O)O)sc2ncn(C)c(=O)c12	0.4	-0.7
CNC(=O)[C@@H]1[C@@H](OC)C(=O)N(C)C12CCN(C(=O)c1cccs1)CC2	23.9	20.3
COc1ccc(NC(=O)N(C)Cc2ccc(Cl)s2)cn1	8.3	5.6
CN(CC(=O)N1CCN(c2ncccn2)CC1)S(=O)(=O)c1cccs1	-0.4	-1.3
O=C(O)c1cc(S(=O)(=O)N2CCCC2)cs1	-0.7	-2.7
CN1CCc2c(sc(NC(=O)c3ccc(C#N)cc3)c2-c2nc3ccccc3s2)C1	-3.1	-5.9
C=CCN(CC(=O)N1CCc2sccc2C1COc1ccccc1OC)C(=O)NC(C)C (stereo not drawn)	-3.5	-2.4
COCCN(Cc1ccsc1)C(=O)C1CC(=O)N(c2ccc(C)c(C)c2)C1 (stereo not drawn)	32.4	28.8
CNC(=O)C1CCN(C(=O)c2cc3sc(N(C)C)nc3s2)CC1	4.5	3.0
CC(=O)NC(CC(=O)N(C)C1CCCCC1)c1cccs1 (stereo not drawn)	-2.0	-3.2
O=C(Cc1cccs1)N1CCN(c2nc(Cc3ccccc3)nc3c2cnn3-c2ccccc2)CC1	3.8	3.4

Screening data from PubChem BioAssay.

This is a subset, so the mix of outcomes need not match the whole.
